# Screens as filed in PubChem BioAssay.
# MT1-MMP act inh – inhibitors of human MT1-MMP activation | P50281 | HT1080 RFP-PRO-GFP cells, GFP/RFP ratio fluorescence, overnight; percent of plate control window, DMSO zero | GFP/RFP ratio change, % at 20 µM | actives 0.061% (n = 360,000) | AID 651647;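 active = GFP/RFP ratio change of at least 30% with cell ATP level not reduced by more than half and red fluorescence within 50% of control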; also: strong numbers were not always called active
#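 Test system: HT1080 RFP-PRO-GFP cells; Benchmarks: DMSO and RFP-L50D-GFP cell wells; Timing: cells overnight before dosing, compound overnight, 37 °C, 5% CO2; Compound: one 20 µM compound dose with 1% DMSO; Read-out: GFP/RFP fluorescence ratio.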
# Yeast UUG start – alters start codon recognition fidelity in yeast | S. cerevisiae UUG-firefly luciferase reporter, luminescence/redox ratio | activity score, % at 18.7 µM | actives 0.13% (n = 350,000) | AID 602363;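 active = replicate mean at a twofold rise or more, about +100% in these data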;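 also: firefly luciferase made from a UUG start codon reports start codon fidelity; reporter light over untreated wells divided by growth signal over untreated wells; some hits fall short of that in this replicate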
# PABP polyA inh – blocks human PABP binding to poly(A) RNA. P11940. fluorescence polarization. inhibition, % at 35 µM. actives 1% (n = 290,000). AID 2014;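 active = 50% or more with normal probe brightness, or confirmed in later tests; inconclusive = above 50% with abnormal brightness, or retests that disagree; inactive = below 50% or failed in later tests; about a fifth of its hits are not listed in these tables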;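 also: calls also rest on retests at 20 µM and on dose response follow-up; controls were probe without protein and protein plus probe with vehicle; some compounds called inactive have numbers as strong as hits; many hits fall short of the cut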
# Target sequence (P11940 whole entry, looked up): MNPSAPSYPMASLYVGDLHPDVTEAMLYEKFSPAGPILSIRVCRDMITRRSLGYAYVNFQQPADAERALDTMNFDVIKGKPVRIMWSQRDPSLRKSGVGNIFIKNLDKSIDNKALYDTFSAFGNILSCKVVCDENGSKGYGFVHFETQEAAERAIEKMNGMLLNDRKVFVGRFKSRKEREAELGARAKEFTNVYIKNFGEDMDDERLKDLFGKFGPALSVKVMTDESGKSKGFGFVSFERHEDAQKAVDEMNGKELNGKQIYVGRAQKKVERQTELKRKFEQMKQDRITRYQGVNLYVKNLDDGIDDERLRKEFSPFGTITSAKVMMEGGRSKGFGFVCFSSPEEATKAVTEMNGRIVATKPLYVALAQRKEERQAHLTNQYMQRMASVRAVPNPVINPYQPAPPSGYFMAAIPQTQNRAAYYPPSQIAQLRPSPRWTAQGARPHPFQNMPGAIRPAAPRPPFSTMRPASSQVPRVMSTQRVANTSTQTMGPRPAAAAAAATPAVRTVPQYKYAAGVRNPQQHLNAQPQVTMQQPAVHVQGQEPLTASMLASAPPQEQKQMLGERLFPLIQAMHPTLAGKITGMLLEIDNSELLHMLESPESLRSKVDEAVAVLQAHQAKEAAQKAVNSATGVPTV
# Rce1 inhib – yeast Ras-converting enzyme inhibition. yeast membranes, quenched prenylated peptide cleavage fluorescence. calls only. actives 0.27% (n = 290,000);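 active = fall in fluorescence gain of 50% or more versus controls, with final raw signal at or below 3038400; inconclusive = same 50% fall but final raw signal above 3038400; inactive = fall in fluorescence gain under 50%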;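 also: plate controls were neutral control wells for no effect and wells lacking membranes for full effect; tested at 10 µM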
# eIF4H FP inh – inhibitors of RNA binding by human eIF4H. Q15056. eIF4H fluorescence polarization binding assay. inhibition, % at 35 µM. actives 0.94% (n = 290,000). AID 2012;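 active = 50% or more with normal probe brightness, or confirmed in later tests; inconclusive = above 50% with abnormal brightness, or retests that disagree; inactive = below 50% or failed in later tests; about a fifth of its hits are not listed in these tables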;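 also: calls also rest on retests at 20 µM and on dose response follow-up; 0% = protein and probe with vehicle and 100% = probe without protein; strong numbers were not always called active; many hits fall short of the cut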
# HIV Env fusion – inhibitors of HIV Env-mediated cell fusion; HeLa-JRFL Env/CEM21 cell fusion, luciferase; inhibition, % at 12.3 µM; actives 1.1% (n = 360,000); AID 651610;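 active = mean replicate inhibition score of at least 50 and every replicate individually at or above 50; inconclusive = only one of the two criteria met; inactive = mean below 50 and not all replicates reaching 50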;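 also: 0% = plate neutral controls and 100% = maraviroc near 300 nM; one replicate is shown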
# CSC inhib – blocks cancer stem cells. inhibition, % at 7.5 µM. actives 1.1% (n = 300,000). cancer stem cell-like cells viability, luminescence;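 active = mean at 75% or more and at least half the replicates too; inconclusive = mean and replicates disagree; tested in HMLE shEcad cells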;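 also: 0% = median of negative and 100% = median of positive control wells; the first replicate is given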
# eIF4H FP inh retest – second read-out of eIF4H FP inh, no call of its own (marks repeat the call); inhibition, %; compound at 20 µM; confirmation average;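 mean of two retest wells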
# PABP polyA inh retest – further read-out of PABP polyA inh, marked with its call; inhibition, %; compound at 20 µM; confirmation repeats;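 mean of two retest wells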
# MT1-MMP act inh RFP – further read-out of MT1-MMP act inh, marked with its call; RFP signal change, %; measured here: RFP expression control read;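 0 = vehicle wells; hits needed this value within 50% of zero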
# * hit, by the source's call; i = inactive; ? = inconclusive; · = not tested or not shown; & = joins results of further samples; [ ] = another dose, or the depositor's remark. These rows are one share of the data; the hit share may differ from the screen's.
SMILES,MT1-MMP act inh,MT1-MMP act inh RFP,Yeast UUG start,PABP polyA inh,Rce1 inhib,eIF4H FP inh,HIV Env fusion,CSC inhib,others
COc1ccc(/C(O)=C/C(=O)C(=O)NNC(=O)C(O)(c2ccccc2)c2ccccc2)cc1,3.3,3.9,·,-6.9,i,-0.5,·,9.0,
Cc1cccc(CN2C(=O)CCSc3ccc(Cl)cc32)c1,-7.6,-3.4,0.5,-8.0,i,-5.0,·,5.8,
CCOC(=O)c1cc(C)sc1N1C(=O)C2C3C=CC(C3)C2C1=O (configuration not stated),3.1,1.7,-20.8,0.5,i,2.1,-38.0,-10.3,
Cc1cc(N2CCCCC2C)nc(-c2ccccc2O)n1 (configuration not stated),-2.6,-1.2,-19.6,-5.3,i,22.8,-6.7,37.6,
CCCNC(=O)C1(O)c2cc(Br)ccc2NC(=O)N1c1ccc(Cl)cc1 (configuration not stated),-4.0,-1.6,-12.0,-5.0,i,-3.4,-9.9,12.5,
CCCn1c(Nc2ccccc2)nc2ccccc21,-3.6,-3.5,3.7,-6.7,i,-4.4,-56.8,-1.2,
Oc1ccc(CNCC2COc3ccccc3O2)cc1 (configuration not stated),8.5,4.5,·,1.9,i,2.0,·,-4.0,
COCCCNC(=O)CC(C)c1ccccc1 (configuration not stated),2.1,3.5,-13.1,67.2,i,-14.4,-40.5,-10.8,eIF4H FP inh retest=-3.5;PABP polyA inh retest=-4.2
CN1CCc2nc(SCC(=O)Nc3cccc(F)c3)c(C#N)c(-c3cccs3)c2C1,-59.0,6.3,-8.7,0.9,i,2.2,-37.7,3.5,
O=C(NCC(=O)N1CCCC(C(F)(F)F)C1)c1ccc2ccccc2c1 (configuration not stated),0.9,-2.4,7.2,·,i,·,-23.0,-4.3,
O=C1N=C(N2CCCC2)S/C1=C\c1cccc(Br)c1,1.4,-10.5,-15.5,-0.2,i,-16.8,·,-10.0,
COc1ccc(NC(=O)C2CC(=O)N(CCc3ccc(Cl)cc3)C2)cc1 (configuration not stated),-0.2,-2.5,3.0,-2.5,i,0.8,6.7,-15.4,
O=C(Cc1ccccc1)NCCSC1CCCCC1,-2.4,-1.5,-20.4,-6.6,i,3.4,16.7,0.0,
CCN(c1cccc(C)c1)S(=O)(=O)c1csc(C(N)=O)c1,-1.7,-0.9,-5.2,2.5,i,-7.4,3.4,-13.3,
Cc1ccc(-c2nn3nnnc3c3ccccc23)cc1,-1.2,-7.5,5.2,-2.8,i,3.9,·,-11.9,
CN(C)c1nc(OCCNC(=O)COc2ccc(Cl)cc2Cl)nc(N(C)C)n1,5.8,5.6,-13.0,8.6,i,-4.4,44.4*,-5.1,
COc1ccccc1NS(=O)(=O)c1ccc(O)cc1,2.5,4.8,2.1,6.6,i,9.3,-83.3,-0.3,
CCCCCCSc1nnc(-c2cnn(-c3ccccc3)c2-n2cccc2)n1C,-17.1,-12.0,-16.1,-1.0,i,4.2,-6.7,38.0,
O=C(Nc1ccc(Oc2cccnc2)cc1)c1ccccc1Cl,-2.4,-6.0,·,-15.5,i,3.1,-37.6,5.9,
COc1ccc(C2c3ccc(O)cc3Oc3ncn4nc(-c5ccco5)nc4c32)cc1OC (configuration not stated),-3.8,-2.2,·,-8.5,i,-3.1,2.6,5.4,
COc1ccc(CCNC(=O)COc2ccc(S(=O)(=O)NC3CCCCC3)cc2Cl)cc1OC,-4.7,-10.0,·,-2.6,i,-9.5,-34.4,-11.2,
COc1ccccc1C1C(C#N)=C(N)N(c2cccnc2)C2=C1C(=O)CC(C)(C)C2 (configuration not stated),-1.6,-1.4,-23.3,-2.8,i,-2.8,1.6,-8.4,
O=C(NCCN1CCOCC1)Nc1ccc(F)cc1,0.5,4.9,-9.9,-10.1,i,1.1,4.8,-10.4,
CCOCCCNS(=O)(=O)c1cc(Br)cc2c1N(C(=O)C1CC1)CC2,6.5,-0.1,-6.2,0.7,i,0.3,4.8,-12.8,
COc1ccc(CCNC(=O)c2cc(=O)[nH]c3ccccc23)cc1,0.7,0.5,-7.5,5.7,i,-9.9,0.7,4.0,
CCCCCC(=O)Nc1cccc(C2=NOC3(C2)C[C@H](C(N)=O)N(C(=O)CCCCC)C3)c1 (some centres not stated),2.0,-3.9,17.9,2.2,i,-0.4,9.3,-5.4,
COc1ccc(N2C(=O)C3CCCN3C2c2cccc(C)c2)cc1 (configuration not stated),2.6,5.3,3.0,0.7,i,-1.0,10.6,9.4,
Cc1cc2nc3c(=O)n(Cc4ccccc4)c(=O)[nH]c3nc2cc1N,-131.6,-1.2,-15.8,?,i,?,-18.0,-4.7,
CCOC(=O)C(NS(=O)(=O)c1ccc(C)cc1)(C(F)(F)F)P(=O)(OCC(C)C)OCC(C)C (configuration not stated),-3.6,4.2,·,2.9,i,-5.4,·,-3.6,
COC(=O)c1ccc(/C=N\NC(=O)c2ccc(C)cc2Cl)cc1,6.5,9.8,-10.5,-14.7,i,-14.8,·,-3.9,
Cn1c(CNC(=O)c2ccc(Cl)cc2)nnc1SCC(=O)N1CCOCC1,-1.6,1.6,-25.0,-2.5,i,-5.2,2.9,-2.7,
CCc1nn(-c2ccccc2)c2c1-c1cc(OC)c(OC)cc1C1(N2)C(=O)Nc2ccccc21 (configuration not stated),-20.8,-12.1,-12.6,-16.4,i,-2.0,·,-2.2,
COC(=O)CN=Cc1c(C)[nH]n(-c2ccccc2)c1=O,2.4,1.9,·,6.0,i,-2.9,2.7,0.3,
Cn1c(C(=O)N2CCN(c3ccccn3)CC2)cc2ccccc21,-0.4,-0.1,4.8,0.1,i,-5.5,-12.5,-12.0,
COc1cccc(C(=O)N2CCCC(CCC(=O)NCc3ccc(F)c(F)c3)C2)c1 (configuration not stated),-0.5,-6.2,·,8.8,i,-6.3,4.8,0.0,
COc1ccc(C2C(C(=O)Nc3cccnc3)=C(C)Nc3nc(-c4cccs4)nn32)cc1 (configuration not stated),6.7,1.1,-9.2,0.6,i,-8.7,-33.4,-8.7,
Cc1ccc(O/C=C2\OC(=O)c3ccccc32)cc1,2.0,2.1,·,-3.3,i,-0.5,-89.1,-6.7,
Cc1cccc(-c2noc(CCC(=O)N3CCN(c4cc(C)ccc4C)CC3)n2)c1,1.2,0.8,-0.8,·,·,·,-71.8,·,
CC(=O)Nc1ccc(CN2CCCCCC2)cc1,2.5,-0.7,-6.1,18.7,i,5.3,-13.9,-20.5,
CCc1ccc(NC(=O)CCS(=O)(=O)c2cccc3nsnc23)cc1,-0.9,2.3,-17.1,2.1,i,-4.7,-55.1,5.8,
COc1ccc(-c2ccc(Nc3ccc(S(=O)(=O)N4CCCC4)cc3)nn2)cc1OC,6.7,-16.7,·,-3.9,i,-5.9,22.0,3.6,
COc1cccc2c(N/N=C/c3ccccc3)cc(C)nc12,1.8,3.3,-11.2,-7.6,i,-10.9,20.4,-11.4,
Cc1ccc(NS(=O)(=O)c2ccc(N/N=C/c3ccccc3OCC(=O)O)c([N+](=O)[O-])c2)c(C)c1,7.6,-3.0,-14.3,33.6,i,23.5,-5.9,0.9,
CC(NC(=S)NCc1ccccc1)C12CC3CC(CC(C3)C1)C2 (configuration not stated),0.4,-3.0,·,-21.5,i,-8.0,-12.0,-3.7,
O=C(Cn1nc(Br)nc1Br)c1ccccc1,-2.8,2.0,-15.8,-3.7,i,-7.9,10.7,-4.8,

# Structural class: those above with a thiophene ring, fused or not.
SMILES,MT1-MMP act inh,MT1-MMP act inh RFP,Yeast UUG start,PABP polyA inh,Rce1 inhib,eIF4H FP inh,HIV Env fusion,CSC inhib,others
CCOC(=O)c1cc(C)sc1N1C(=O)C2C3C=CC(C3)C2C1=O (configuration not stated),3.1,1.7,-20.8,0.5,i,2.1,-38.0,-10.3,
CN1CCc2nc(SCC(=O)Nc3cccc(F)c3)c(C#N)c(-c3cccs3)c2C1,-59.0,6.3,-8.7,0.9,i,2.2,-37.7,3.5,
CCN(c1cccc(C)c1)S(=O)(=O)c1csc(C(N)=O)c1,-1.7,-0.9,-5.2,2.5,i,-7.4,3.4,-13.3,
COc1ccc(C2C(C(=O)Nc3cccnc3)=C(C)Nc3nc(-c4cccs4)nn32)cc1 (configuration not stated),6.7,1.1,-9.2,0.6,i,-8.7,-33.4,-8.7,

# Carrying on.
SMILES,MT1-MMP act inh,MT1-MMP act inh RFP,Yeast UUG start,PABP polyA inh,Rce1 inhib,eIF4H FP inh,HIV Env fusion,CSC inhib,others
CCOC(=O)C1CCCN(C(=O)c2cccc(S(=O)(=O)N(Cc3ccccc3)c3ccccc3OC)c2)C1 (configuration not stated),4.5,-3.5,-7.7,·,i,·,-1.1,-5.4,
COc1ccc(N(C(=O)c2snc(C(N)=O)c2N)C(C(=O)NC2CCCC2)c2ccc(OC)c(OC)c2)cc1 (configuration not stated),-1.6,3.7,·,-4.3,i,-5.2,7.2,-2.4,
CCC(C)NC(=O)C1c2ccccc2C(=O)N1Cc1ccccc1OC (configuration not stated),21.6,-0.1,2.6,-2.3,i,6.1,-14.7,-15.9,
CCN(CC)S(=O)(=O)c1ccc(C(=O)NCc2ccc3[nH]c4c(c3c2)CCCC4)cc1,-2.6,-2.7,-1.2,1.6,i,7.3,·,-3.9,
COc1ccc(C=Nc2ccc3[nH]ncc3c2)c(O)c1,4.2,4.8,·,37.0*,i,77.4*,8.5,-4.9,eIF4H FP inh retest=83.5*;PABP polyA inh retest=57.3*
C=CCOC(=O)C1=C[C@H](c2csc3ccccc23)[C@@H](CCCO)[C@H](OCC)O1,-3.4,-2.0,39.8&-6.8,9.9,i,-0.5,5.1[16.7 µM],6.4,
C/C(CC(=O)Nc1cc(C)ccn1)=N\NC(=O)COc1cccc(C)c1,·,·,·,5.8,i,-2.6,·,·,
COCCNC(=O)CN(c1cc(Cl)ccc1OC)S(C)(=O)=O,0.1,4.4,-14.9,-3.6,i,-7.1,·,-3.4,
Cc1ccccc1C(=O)N1CC(=O)Nc2ccc(F)cc2C1c1ccc(F)cc1 (configuration not stated),-12.8,-5.0,-10.4,6.4,i,4.6,44.0,-7.9,
CCn1cc(/C=N/N=C2\CCC3C4CCc5cc(O)ccc5C4CC[C@]23C)c(C)n1 (some centres not stated),·,·,-15.4,-10.9,i,1.0,·,26.4,
O=[N+]([O-])c1cccc(/C=N/NS(=O)(=O)c2ccccc2)c1,-1.4,3.9,·,-5.4,i,-0.6,12.7,-13.9,
Cc1ccc(OCc2nnc(SCC(=O)c3ccccc3)n2Cc2ccco2)cc1,0.5,-3.1,-20.4,-0.8,i,6.5,·,-5.7,
Cc1ccccc1N1CCN(CCC(=O)Nc2ccc(F)cc2)CC1,5.4,-2.2,-6.0,-9.8,i,-8.5,-5.6,0.2,
COc1cc(/C=C2\SC(=S)N(NC(=O)c3cccnc3)C2=O)ccc1O,-35.0,62.3,·,-4.2,i,24.7,-12.7,6.2,
CN(C)c1nc(SCC#N)nc(N(C)C)n1,-1.8,1.1,-15.2,-7.8,i,31.5,-39.0,-8.1,
CCC(CC)C(=O)Nc1ccc(Nc2ccccc2)cc1,5.8,4.3,·,3.8,i,8.1,-6.9,-5.8,
